# Screens deposited in PubChem BioAssay by National Center for Advancing Translational Sciences (NCATS).
# gsp antagonist: antagonists of gsp mutant (McCune-Albright syndrome); gsp-mutant cells, cAMP HTRF, 30 min; control for the full effect not named in the record; Potency, µM (top dose mostly 76.9 µM), for the others: at the top dose activity change, negative = inhibition, actives largely listed as inhibitors; 340,000 tested, 0.4% active; AID 624288; active = falling curve of any shape with a large fitted effect; inconclusive = falling curve, mostly with a smaller effect; inactive = flat or rising curve; cell line not stated here;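 further: intracellular cAMP measured with PDE inhibitor Ro 20-1724 present during compound exposure; potency means the concentration at half of the fitted maximal effect; on the % scale 0 is the no-effect control and ±100 the full control effect; nearly all actives have a fitted effect of over 65% in size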
#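 G418-selected cells were plated in DMEM/10% FBS for 16-24 h at 37C, then treated with compounds plus the PDE inhibitor […] (300 uM solution added) for 30 min at 37C. Intracellular cAMP was measured by HTRF after 30 min lysis at room temperature.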
# gsp agonist: activates gsp, the McCune-Albright syndrome mutation | gsp mutant cells, cAMP HTRF, 30 min; control for the full effect not named in the record | Potency, µM (titrated, usually from 76.9 µM), inactives show top-dose activation (cAMP increase), hits mostly activators | 340,000 tested, 0.13% active; active = well fitted activation curve with a large enough effect; inconclusive = small, poorly fitted or top-dose-only effect, or another doubt; inactive = no such curve, though single readings can be large or run the other way; cell line not stated here;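 further: phosphodiesterase inhibitor Ro 20-1724 added with compounds to block cAMP breakdown; potency means the concentration at half of the fitted maximal effect; nearly all actives have a fitted effect of over 60% in size; about a fifth of the inactives were tested at one dose only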
#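 Cells in DMEM/10% FBS with G418 were pretreated with compounds in DMSO plus […] (300 uM stock) for 30 min at 37C. cAMP was measured by HTRF (cAMP-d2 plus anti-cAMP antibody-K) after 30 min at room temperature.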
# D2 PAM: positive allosteric modulators of human D2 dopamine receptor | DiscoveRx D2 beta-arrestin cells, luminescence, 90 min; 100% = 57 uM dopamine signal | 360,000 tested, 0.23% active | potentiation, % (no concentration beside the values) | P14416 | AID 624464; active = potentiation of 50% or more; inconclusive = 30% to 50%; inactive = 30% or less;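 further: compound concentration not given in the record; tested on top of an EC20 dose of dopamine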
#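 D2 cells co-treated with compound plus 50 nM dopamine (EC20) for 90 min at 37 deg C to detect potentiation. Beta-arrestin recruitment was read as enzyme-fragment luminescence after 1 h at ambient temperature. Full response was set by 57 uM dopamine.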
# Six1-Eya2 inh: inhibitors of human Six1/Eya2 interaction; AlphaScreen GST-Six1/His-Eya2 binding, biochemical; active compounds read low; control for the full effect not named in the record; activity change, % (no concentration beside the values); 360,000 tested, 0.56% active; Q15475+O00167; AID 651725; in the data active = activity change below about -65%; inconclusive = about -30% to -65%; inactive = above about -30%; further: on the % scale 0 is the no-effect control and ±100 the full control effect
# Target sequence (O00167 whole entry, looked up): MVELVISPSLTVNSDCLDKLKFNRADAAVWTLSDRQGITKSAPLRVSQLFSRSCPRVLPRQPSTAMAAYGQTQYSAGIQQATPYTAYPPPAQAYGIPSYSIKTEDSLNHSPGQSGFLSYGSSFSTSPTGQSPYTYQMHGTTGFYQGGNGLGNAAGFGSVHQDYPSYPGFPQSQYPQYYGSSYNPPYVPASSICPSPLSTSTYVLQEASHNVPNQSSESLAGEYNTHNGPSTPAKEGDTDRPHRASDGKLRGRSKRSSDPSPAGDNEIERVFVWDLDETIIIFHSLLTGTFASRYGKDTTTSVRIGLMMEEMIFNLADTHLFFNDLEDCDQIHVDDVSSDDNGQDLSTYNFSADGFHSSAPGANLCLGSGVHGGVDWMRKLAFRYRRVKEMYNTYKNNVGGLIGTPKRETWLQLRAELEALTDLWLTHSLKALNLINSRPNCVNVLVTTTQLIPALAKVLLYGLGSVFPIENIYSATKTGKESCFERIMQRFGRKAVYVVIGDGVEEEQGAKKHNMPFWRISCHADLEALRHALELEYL
# Target sequence (Q15475 whole entry, looked up): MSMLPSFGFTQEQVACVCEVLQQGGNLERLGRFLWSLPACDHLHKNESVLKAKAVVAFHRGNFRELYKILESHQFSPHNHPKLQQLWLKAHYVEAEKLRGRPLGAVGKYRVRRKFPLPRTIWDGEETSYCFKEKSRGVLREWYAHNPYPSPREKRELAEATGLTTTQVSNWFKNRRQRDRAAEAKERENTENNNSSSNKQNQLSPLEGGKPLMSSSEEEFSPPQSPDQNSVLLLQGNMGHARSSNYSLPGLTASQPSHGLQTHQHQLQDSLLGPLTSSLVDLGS
#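 Six1/Eya2 binding was read as AlphaScreen signal after compounds were pinned into GST-Six1 plus His-tagged Eya2 (5X stock 250/500 nM) in pH 8.0 Tris/NaCl/TCEP buffer, beads added, then incubated 1 h, 37 C, dark.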
# CtBP-E1A blk: CtBP/E1A binding inhibition; AID 651724; activity change, % (no concentration beside the values); 340,000 tested, 0.49% active; AlphaScreen GST-E1A/His-CtBP binding, 1536-well; active compounds read low; control for the full effect not named in the record; in the data active means activity change below about -65%; inconclusive means about -30% to -65%; inactive means above about -30%; further: on the % scale 0 is the no-effect control and ±100 the full control effect
#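 Homogeneous bead-based format: GST-tagged E1A captured on glutathione donor beads, His-tagged CtBP on nickel acceptor beads; compounds precede bead addition by 2 h at 37 °C.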
# D2 ag: agonists of human D2 dopamine receptor (beta-arrestin); activation, % (concentration not given with the values); DiscoveRx PathHunter D2 beta-arrestin, luminescence, 90 min; 100% = 57 uM dopamine signal; AID 624465; 360,000 tested, 0.084% active; in the data active = activation above about 40%; inconclusive = about 15% to 40%; inactive = below about 15%; further: compound concentration not given in the record; the text of the record calls up to 30% inactive
#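 DiscoveRx PathHunter D2 beta-arrestin cells (2,100/well) attached overnight, then compound-stimulated 90 min at 37 C in HBSS/10 mM HEPES/0.1% Tween-20 buffer; beta-galactosidase complementation read by luminescence after 1 h at ambient temperature. Dopamine 57 uM final (EC100) as control.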
# Numbers without * were called inactive; ? = inconclusive; nt = no result given; [ ] = remark or other dose.
SMILES,gsp antagonist,gsp agonist,D2 PAM,Six1-Eya2 inh,CtBP-E1A blk,D2 ag
COc1cccc(-c2c(NC(=O)c3ccco3)oc3ccccc3c2=O)c1,-6%,nt,-9,6,5,-2.0
Cc1ccc(C(C[N+](=O)[O-])n2nc(C)cc2C)cc1 (configuration not stated),6%,1%,-4,4,-6,-2.2
CC1=NC(=O)C(N=Nc2cccc(C(=O)O)c2)N1c1ccccc1 (configuration not stated),?,-55%[inhibitor],-5,-2,-9,0.0
Nc1cc(=O)[nH]n1C1CCCC1,4%,23%[15.4 µM],-4,7,-1,-6.5
COc1cc(C2CC(=O)Oc3c2c(=O)n(C)c2ccccc32)cc(OC)c1OC (configuration not stated),-5%,16%,-5,-1,nt,3.1
CCCCc1c(O)nc2ccccn2c1=O,10%,9%[15.4 µM],-16,-1,18,-1.5
CC(NCCCOc1cccc2ccccc12)c1ccccc1 (configuration not stated),10%,-34%[inhibitor],-5,-4,nt,-6.3
CCN(CC)CCNc1nc2c(c(=O)[nH]c(=O)n2C)n1CC(O)COc1ccc(Cl)cc1Cl (configuration not stated),3%,-1%,-13,-2,-1,-2.8
O=C(CCCn1c(=O)[nH]c2ccsc2c1=O)NCc1cccs1,12%,37%,-1,5,-1,0.4
O=C1NCC(c2ccccc2)C1C(=O)N/N=C/c1ccc(Cl)s1 (configuration not stated),9%,-2%,-10,8,-1,-2.0
CCCCOC(=O)CCc1c(C)n[nH]c1C,-5%,2%[15.4 µM],-6,3,8,-3.2
Cn1c(CNC(=O)c2ccccc2F)nnc1SCC(=O)c1ccccc1,0%,9%,-13,2,-7,-2.3
O=C1NC[C@@H](Cc2ccc(O)cc2)N(CC2CCCCC2)C1=O,10%,?,-1,-1,1,-2.2
Cc1oc(-c2ccccc2)cc1C(=O)NC1CCN(Cc2ccccc2)CC1,9%,-7%[15.4 µM],-7,-3,-23,-12
CCN1C(Nc2ccccc2)=NC[C@@H]1Cc1ccccc1,12%,19%,-14,0,8,-2.1
CC1Oc2ccccc2OC1C(=O)Nc1ccccn1 (configuration not stated),-2%,25%,-14,-15,-13,-2.2
Cc1cc(-c2n[nH]c(=S)n2Cc2ccco2)nn1C,-4%,0%,-13,3,-4,1.7
CCCCOP(=O)(c1ccc(N(C)C)cc1)C(O)c1ccncc1 (configuration not stated),0%,-19%,-7,11,8,-1.5
CCC(=O)NC1=C(NC(C)c2ccccc2)C(=O)c2ccccc2C1=O (configuration not stated),-26%,-13%,?,-9,-6,5.8
O=C(COc1cc(O)c2c(=O)c3ccccc3oc2c1)OCc1ccccc1,4%,-3%[15.4 µM],-7,-4,-17,-3.1
COC(=O)C1CCN(C(=O)C2CCN(C(=O)[C@@H](NS(=O)(=O)c3ccc(C)cc3)C(C)C)CC2)CC1,-3%,30%,-2,4,2,-0.8
COc1ccc(-c2nn(-c3ccccc3)cc2C(=O)O)cc1OC,-3%,-1%,-27,5,2,-0.3
COc1ccc(/C=N/n2cnc3scc(-c4cccs4)c3c2=O)cc1OC,-2%,-24%,-20,-3,-6,-2.7
CCOC(=O)c1c(C)[nH]c(C(=O)CN2C(=O)NC(C)(c3ccc4ccccc4c3)C2=O)c1C (configuration not stated),-1%,-30%,8,-9,-16,6.1
CN(C)c1ccc(/C=N/NC(=O)C2COc3ccccc3O2)o1 (configuration not stated),14%,9%,-7,?,?,0.7

# The final six records of the section before are carried over, then new ones follow:
SMILES,gsp antagonist,gsp agonist,D2 PAM,Six1-Eya2 inh,CtBP-E1A blk,D2 ag
O=C(COc1cc(O)c2c(=O)c3ccccc3oc2c1)OCc1ccccc1,4%,-3%[15.4 µM],-7,-4,-17,-3.1
COC(=O)C1CCN(C(=O)C2CCN(C(=O)[C@@H](NS(=O)(=O)c3ccc(C)cc3)C(C)C)CC2)CC1,-3%,30%,-2,4,2,-0.8
COc1ccc(-c2nn(-c3ccccc3)cc2C(=O)O)cc1OC,-3%,-1%,-27,5,2,-0.3
COc1ccc(/C=N/n2cnc3scc(-c4cccs4)c3c2=O)cc1OC,-2%,-24%,-20,-3,-6,-2.7
CCOC(=O)c1c(C)[nH]c(C(=O)CN2C(=O)NC(C)(c3ccc4ccccc4c3)C2=O)c1C (configuration not stated),-1%,-30%,8,-9,-16,6.1
CN(C)c1ccc(/C=N/NC(=O)C2COc3ccccc3O2)o1 (configuration not stated),14%,9%,-7,?,?,0.7
Cc1ccc(S(=O)(=O)N2CCc3cc4c(cc3C2C)OCCCO4)cc1 (configuration not stated),-13%,-11%,-13,-5,-9,1.4
NC(=O)c1ccc(NC(=O)COC(=O)CCN2C(=O)c3ccccc3C2=O)cc1,4%,-4%,-11,-4,3,0.1
Cc1ccc(-n2nnc3c(=O)n(CC(=O)OCc4ccccc4)cnc32)cc1,-4%,-11%,-8,2,0,-0.2
COc1ccccc1NC(=O)C1CCCN1S(=O)(=O)c1ccc(Cl)cc1 (configuration not stated),nt,4%[15.4 µM],-3,3,7,1.6
COc1ccc(OC)c(-c2cc(C(=O)Nc3cccc(Cl)c3)no2)c1,6%,12%,-18,1,9,-5.0
CCOC(=O)C1CCN(C(=O)COC(=O)/C=C/c2ccc([N+](=O)[O-])cc2)CC1,-14%,-5%,-4,?,nt,7.2
Cc1nnc(N2C(=O)C(O)=C(C(=O)c3ccco3)C2c2ccc(C(C)C)cc2)s1 (configuration not stated),-18%,?,12,-4,14,-1.7
O=C(CSc1oc(-c2ccccc2)nc1S(=O)(=O)c1ccc(F)cc1)NCC1CCCO1 (configuration not stated),-7%,11%,-15,1,7,-1.9
COc1cc(/C=N/NC(=O)CNC(=O)c2ccncc2)ccc1O,-10%,-15%,-8,0,-1,-6.2
O=C(COC(=O)Cn1cnc2ccccc21)NCCc1ccc(Cl)cc1,2%,-1%,-14,5,-12,-1.1
Cc1cc(C)c(S(=O)(=O)c2ccc(F)cc2C)c(Cl)n1,-14%,-1%,7,3,nt,-2.4
CN(C(=O)C1CCOC1)c1nnc(C2CCOC2)s1 (configuration not stated),?,15%,6,11,6,-0.9
CCC(C)(C(=O)NC1CCCCC1)N(C(=O)c1ccccn1)c1ccccc1 (configuration not stated),1%,-15%,2,-3,1,-2.8
Cc1ccc(N(CC(=O)NC2CCCCC2)C(=O)CCCC(=O)Nc2ccccn2)c(C)c1,nt,2%[15.4 µM],-26,0,-11,-1.0
CCC(=O)Nc1cccc(-c2cn3ccccc3n2)c1,-8%,-5%,-6,-3,-12,-1.3
CCc1cc2c3c(c1)/C(=C1/SC(N)=NC1=O)C(=O)N3C(C)(C)C=C2C,5%,0%,-1,4,-3,1.5
COc1ccc(C(F)(F)F)cc1NC(=O)c1nc2nc(C)cc(C(F)F)n2n1,2%,3%,-4,6,7,1.5
O=C(Nc1ccccc1)N1CCN(c2ccccc2)CC1,8%,2%[15.4 µM],-18,-8,2,-3.3
COc1ccc(C(=O)Nc2ccc(C3(C#N)CCCC3)cc2)cc1,nt,-17%[15.4 µM],-16,-2,-22,-2.4
COc1ccccc1N(CC(=O)N1CCN(c2ccccc2)CC1)S(=O)(=O)c1ccc(C)cc1,-8%,-32%[inhibitor],-1,-17,1,-3.4
Cc1ccc(C(=O)NCc2ccco2)cc1,10%,-8%,-4,0,-6,-1.8
CCc1cccc(OCC(=O)Nc2ccc(S(=O)(=O)N3CCCC3)cc2)c1,-24%,33%,-17,-3,-4,-3.5
O=C(CN1C(=O)/C(=C\c2cccc(Cl)c2)Sc2ccccc21)NCCCN1CCOCC1,3%,-26%,-12,3,nt,-4.8
COc1ccc(C)cc1NS(=O)(=O)c1ccccc1,-4%,-48%[inhibitor],-9,3,-1,-4.7
COc1ccc(/C=C/C(=O)NCc2ccccn2)cc1OC,-6%,?,0,-15,-15,-0.8

# (more compounds)
SMILES,gsp antagonist,gsp agonist,D2 PAM,Six1-Eya2 inh,CtBP-E1A blk,D2 ag
COC(=O)c1cccc(-n2c(=O)n(Cc3ccccc3)c(=O)c3[nH]cnc32)c1C,-1%,7%[15.4 µM],-20,0,-8,-9.4
O=c1[nH]cc(N(CCO)CCO)c(=O)[nH]1,9%,-23%[15.4 µM],-1,7,6,-4.0
CCC[C@H]1CN(Cc2cccnc2)C(=O)[C@@H]1CC(=O)Nc1ccc(Br)cc1,nt,-39%[inhibitor],nt,-2,2,-0.1
Cc1oc(-c2ccc(Cl)cc2)cc1C(=O)NC1CCN(Cc2ccccc2)CC1,2%,0%[15.4 µM],-18,5,3,-2.7
O=C(COC(=O)Cc1cccs1)Nc1ccccc1F,4%,-14%,1,2,5,-3.9
Cc1cc(C(=O)c2ccccc2)c(NC(=O)CN2CCOCC2)s1,-3%,-20%,-5,-9,nt,-5.4
O=C(OCC(=O)N1CCC(c2ccccc2)=N1)c1ccc(Cl)s1,-13%,20%,-18,9,nt,-0.9
CC1CCCCN1CCNC(=O)c1ccc2c(c1)N(Cc1cccc(Cl)c1)C(=O)c1ccccc1S2(=O)=O (configuration not stated),nt,-46%[inhibitor],-4,-9,-5,-0.1
O=C(Nc1ccccc1N1CCOCC1)C1CCN(S(=O)(=O)c2ccc(F)cc2)CC1,5%,-66%[inhibitor],4,16,-4,-3.1
CC1CCN(S(=O)(=O)c2cn(CC(=O)Nc3ccc(C#N)cc3)cn2)CC1,5%,?,-5,6,nt,2.8
COc1ccc(/C=C2\SC(=S)N(CCCCCC(=O)Nc3cc(C)on3)C2=O)cc1OC,2%,8%,5,0,-8,-1.0
COc1ccc(C2=NN(C(=O)CSc3nc4ccccc4s3)C(c3ccc(F)cc3)C2)cc1 (configuration not stated),-10%,11%,-13,-16,-21,-2.0
Cc1ccc(C)c(Cn2c(=O)n(CCCC(=O)NCc3ccco3)c(=O)c3sccc32)c1,17%,-6%,-24,-3,6,-3.5
COc1cc(/C=C2/SC(=S)N(CCC(=O)Nc3cccnc3)C2=O)cc(OC)c1OC,nt,-12%,-3,-7,10,-1.5
C#CCOc1ccccc1/C=N/NC(=O)c1ccccc1OCc1ccccc1,13µM*,0%,-8,-4,-4,0.6
CCCCCC(=O)Nc1cccc(C2=NOC3(C2)C[C@@H](C(N)=O)N(C(=O)CC(c2ccccc2)c2ccccc2)C3)c1 (some centres not stated),-5%,-25%,-8,18,nt,0.9
Cc1cc([N+](=O)[O-])ccc1NC(=O)CCC(=O)N1CCCCC1,1%,17%,8,5,9,-2.2
CC(=O)N1c2ccc(S(=O)(=O)N3CCOCC3)cc2CC1C (configuration not stated),17%,?,-6,4,4,-0.1
CCCCCCCCCCCCN1C/C(=C\C(=O)OCC)c2cc(C(F)(F)F)ccc2S1(=O)=O,9%,nt,-47,9,-3,-0.1
COc1ccccc1NC(=O)COc1ccc(C(=O)OCC(=O)N(C(C)C)C(C)C)cc1OC,-24%,-39%[inhibitor],-5,-6,-3,-2.2
COc1ccc(C(C)=O)cc1CSc1nnc(-c2ccncc2)o1,-6%,6%,-3,21,nt,-5.3
